D2 agonist – agonists of human D2 dopamine receptor (beta-arrestin) | P14416 | DiscoveRx PathHunter D2 beta-arrestin, luminescence, 90 min; 100% = 57 uM dopamine signal | activation, % (test concentration not listed) | 360,000 compounds, 0.084% hits | AID 624465; in the data active = activation above about 40%; inconclusive = about 15% to 40%; inactive = below about 15%; also: compound concentration not given in the record; the text of the record calls up to 30% inactive
Target sequence (P14416 whole entry, looked up): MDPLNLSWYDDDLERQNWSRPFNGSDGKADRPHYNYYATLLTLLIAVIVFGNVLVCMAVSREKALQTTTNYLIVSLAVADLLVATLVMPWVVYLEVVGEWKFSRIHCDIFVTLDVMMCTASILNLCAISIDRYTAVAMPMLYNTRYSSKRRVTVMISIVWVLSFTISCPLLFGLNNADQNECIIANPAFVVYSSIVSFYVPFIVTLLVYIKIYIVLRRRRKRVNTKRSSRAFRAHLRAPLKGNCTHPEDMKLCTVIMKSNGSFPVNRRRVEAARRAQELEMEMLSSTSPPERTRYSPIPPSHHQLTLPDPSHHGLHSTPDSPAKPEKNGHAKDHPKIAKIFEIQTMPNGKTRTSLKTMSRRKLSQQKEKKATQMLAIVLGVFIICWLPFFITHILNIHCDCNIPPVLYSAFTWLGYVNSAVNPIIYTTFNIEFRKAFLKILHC
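DiscoveRx PathHunter D2 beta-arrestin cells (2,100/well) attached overnight, then compound-stimulated 90 min at 37 C in HBSS/10 mM HEPES/0.1% Tween-20 buffer; beta-galactosidase complementation read by luminescence after 1 h at ambient temperature. Dopamine 57 uM final (EC100) as control.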
Six1-Eya2 inh – inhibitors of human Six1/Eya2 interaction. Q15475+O00167. AlphaScreen GST-Six1/His-Eya2 binding, biochemical; hits give low values; control for the full effect not named in the record. activity change, % (test concentration not listed). 360,000 compounds, 0.56% hits. AID 651725; in the data active = activity change below about -65%; inconclusive = about -30% to -65%; inactive = above about -30%; also: % is scaled to controls: 0 for no effect and ±100 for the full control effect
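Compounds are tested against tagged Six1 and Eya2 proteins bridged by glutathione donor and nickel acceptor beads; after a one-hour incubation at 37 °C without light, AlphaScreen emission is recorded.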
gsp agonist – activates gsp, the McCune-Albright syndrome mutation | Potency, µM (doses to about 76.9 µM), for the others: top-dose activation (cAMP increase), actives largely listed as activators | 340,000 compounds, 0.13% hits | gsp mutant cells, cAMP HTRF, 30 min; control for the full effect not named in the record | AID 624287; active = well fitted activation curve with a large enough effect; inconclusive = small, poorly fitted or top-dose-only effect, or another doubt; inactive = no such curve, though single readings can be large or run the other way; cell line not stated here;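 also: phosphodiesterase inhibitor Ro 20-1724 added with compounds to block cAMP breakdown; potency is read from the fitted curve at half-maximal effect; nearly all actives have a fitted effect of over 60% in size; about a fifth of the inactives were tested at one dose only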
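Cells stably selected in G418 were plated at 2000/well, grown 16-24 hr, then given compounds in DMSO with the PDE inhibitor […] (300 uM solution added) for 30 min at 37C; cAMP was read by HTRF.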
CtBP-E1A inh – CtBP/E1A binding inhibition. AlphaScreen GST-E1A/His-CtBP binding, 1536-well; hits give low values; control for the full effect not named in the record. activity change, % (no concentration beside the values). 340,000 compounds, 0.49% hits; in the data active means activity change below about -65%; inconclusive means about -30% to -65%; inactive means above about -30%; also: % is scaled to controls: 0 for no effect and ±100 for the full control effect
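Steps: dispense buffer (Tris pH 8.0, NaCl 300 mM, TCEP 1 mM, BSA, Tween 20); add 5X protein mix (GST-E1A, His-CtBP, 125 nM each); pin 23 nL compound; 2 h at 37 °C, dark; add 5X beads (50 ug/mL); 1 h; read.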
D2 PAM – positive allosteric modulators of human D2 dopamine receptor. AID 624464. P14416. DiscoveRx D2 beta-arrestin cells, luminescence, 90 min; 100% = 57 uM dopamine signal. potentiation, % (concentration not given with the values). 360,000 compounds, 0.23% hits; active = potentiation of 50% or more; inconclusive = 30% to 50%; inactive = 30% or less;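 also: tested on top of an EC20 dose of dopamine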
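D2 cells co-treated with compound plus 50 nM dopamine (EC20) for 90 min at 37 deg C to detect potentiation. Beta-arrestin recruitment was read as enzyme-fragment luminescence after 1 h at ambient temperature. Full response was set by 57 uM dopamine.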
gsp antag – antagonizes gsp, the McCune-Albright syndrome mutation | Potency, µM (titrated, usually from 76.9 µM), inactives show at the highest dose activity change, negative = inhibition, actives largely listed as inhibitors | 340,000 compounds, 0.4% hits | AID 624288 | gsp-mutant cells, cAMP HTRF, 30 min; control for the full effect not named in the record; active = falling curve of any shape with a large fitted effect; inconclusive = falling curve, mostly with a smaller effect; inactive = flat or rising curve; cell line not stated here;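 also: intracellular cAMP measured with PDE inhibitor Ro 20-1724 present during compound exposure; potency is read from the fitted curve at half-maximal effect; % is scaled to controls: 0 for no effect and ±100 for the full control effect; nearly all actives have a fitted effect of over 65% in size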
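HTRF cAMP measurement after 30 min RT detection following 30 min, 37C compound treatment alongside […] (added as 300 uM solution) in G418-selected cells seeded at 2000/well and grown 16–24 h.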
* marks the source's active call; other numbers are inactive results; ? = inconclusive; . = no result given; [ ] = remark or other dose. This is a random part of the collection, and some 1.4% of all compounds hit somewhere here.

SMILES	D2 agonist	Six1-Eya2 inh	gsp agonist	CtBP-E1A inh	D2 PAM	gsp antag
O=c1[nH]c(N2CCc3ccccc3C2)nc2c1CCC2	-1.6	7	24%	0	3	12%
COc1ccc(CCNC(=O)c2ccnc(C(C)(C)C)c2)cc1OC	1.6	-1	-17%	.	-20	0%
COc1cc(CNc2ncnc3c2ncn3[C@H]2CN(Cc3cccc(C(F)(F)F)c3)C[C@@H](COC(C)=O)O2)cc(OC)c1OC	4.1	-8	.	-5	-3	.
O=C1CC(CSc2ccc(Cl)cc2)=NN1	-1.5	1	27%	.	-9	3%
COc1ccccc1S(=O)(=O)N(C)C[C@@H]1OCc2cnnn2CCCC(=O)N([C@@H](C)CO)C[C@@H]1C	-3.5	7	-51%[inhibitor]	-27	-4	.
CCOc1cc(C#N)ccc1OCC(=O)NNC(=O)CC1CCS(=O)(=O)C1 (stereo not drawn)	4.7	4	15%	4	-12	4%
COc1ccc(C(=O)CN2CCN(c3ncccn3)CC2)cc1	14	8	37%	0	-4	50µM*
CC1CC(=O)N(CCc2ccccc2)C(=O)C1	-0.6	-7	-1%	-10	0	5%
CC(NS(=O)(=O)c1ccc(Cl)c(Cl)c1)C(=O)OCC(=O)N1CCCCCC1 (stereo not drawn)	-1.1	5	-10%	-3	-14	-14%
CC(=O)Nc1ccc(C(=O)OCC(=O)c2ccc(C)c([N+](=O)[O-])c2)cc1	-6.6	-8	5%	-4	-13	1%[15.4 µM]
COc1ccc(Cc2nnc(NC(=O)c3cc(OC)c(OC)c(OC)c3)s2)cc1OC	3.3	2	44%	-13	1	-1%
CC(C)CNC(=O)N1c2ccccc2Sc2ccccc21	-6.3	7	8%[15.4 µM]	-9	-6	-11%
Cc1ccc(C(C)(C)NC(=O)C2CCC(=O)N(CC3CCCCC3)C2)cc1 (stereo not drawn)	1.1	3	-46%[inhibitor]	6	-4	15%
COc1ccc(N(CC(=O)NCCSCc2ccc(Cl)cc2)S(C)(=O)=O)cc1Cl	3.9	-8	7%	.	-3	-14%
COc1cc(C(=O)N(Cc2cccnc2)Cc2cc3cc4c(cc3[nH]c2=O)OCCO4)cc(OC)c1OC	-2.5	18	3%	27	5	-10%
O=C(O)CC(NS(=O)(=O)c1ccc2c(c1)OCCO2)c1ccccc1[N+](=O)[O-] (stereo not drawn)	-3.7	0	7%	-1	-10	0%
Cc1ccc(C(=O)Nc2scc(-c3ccccc3)c2C(=O)O)cc1	-4.1	-1	-2%[15.4 µM]	-1	-4	-27%
C/C(=N\NC(=O)c1ccc(N)cc1)C1CC1	-1.7	-4	-19%	-6	-3	7%
COc1ccc(OC)c(S(=O)(=O)NCC(=O)O)c1	-1.6	14	?	10	-5	8%
CC1(c2ccc3c(c2)OCCCO3)NC(=O)N(CC(=O)Nc2cccc(C#N)c2)C1=O (stereo not drawn)	-3.3	-4	-12%	0	2	16%
CCCCCCCCNC(=O)CCNC(=O)c1ccc(C(C)(C)C)cc1	-1.7	2	-6%	-11	-4	1%
O=S(=O)(CC(O)(c1ccccc1)c1ccccc1)CC(O)(c1ccccc1)c1ccccc1	-0.7	7	6%	-1	-1	0%
Cc1ccsc1/C=N/Nc1ccc(F)cc1F	?	-21	10%	-12	7	-9%
Cc1cccc(CCNC(=O)CCc2nc(-c3ccccc3F)no2)c1	-1.8	-2	0%	6	11	-9%
Cc1cccc(-n2nc(C(=O)Nc3ccccc3)n3c(=O)cc(-c4ccccc4)nc23)c1	-2.8	7	21%	5	-3	-1%
CN(C)CCN1C(=O)C(=O)/C(=C(/O)c2ccc3c(c2)OCCO3)C1c1ccccn1 (stereo not drawn)	-1.4	-16	-2%[15.4 µM]	0	-5	8%
Cn1cccc1CNCc1ccccc1Cl	-3.9	-3	-48%[inhibitor]	-6	-10	10%
CCn1cc(C(=O)NCCCN(C)c2ccccc2)c(=O)c2cc(S(=O)(=O)N(C)C)ccc21	-1.8	-12	-46%[inhibitor]	-11	-1	-22%
Cc1ccccc1-n1c(-c2ccc(Br)o2)n[nH]c1=S	-4.1	0	-98%[inhibitor]	6	-5	-31%
COc1cc(OC)cc(C(=O)NCCC(=O)NCCc2ccc(OC)c(OC)c2)c1	1.0	5	-15%	7	-5	-4%
Cc1cccc(N(CC(=O)NC2CCCCC2)C(=O)c2c(C)noc2C)c1	-1.5	-1	3%	-2	-17	0%
CCC(=O)Nc1ccc(NC(=O)c2cccc(OC)c2)nc1	2.4	6	-35%[inhibitor]	-6	8	8%
COC(=O)c1ccc(C(=O)OC)c(NC(=O)CN(C)Cc2ccc(Cl)c(Cl)c2)c1	-0.2	4	-47%[inhibitor]	3	-14	-1%
C=CCOc1ccc(C2NC(=O)c3ccccc3O2)cc1OCC (stereo not drawn)	-4.6	-7	-3%[15.4 µM]	-14	-22	-9%
COc1cccc(C(O)c2nc(/C=C/c3ccccc3)cs2)c1 (stereo not drawn)	-3.5	-2	.	1	-2	.
Cc1cc(C(=O)N/N=C/c2ccc3c(c2)OCO3)c(C)o1	-3.4	5	3%[15.4 µM]	-14	-41	.
COc1c(F)c(F)cc2c(=O)c(C(=O)O)cn(C3CC3)c12	0.8	1	-4%[15.4 µM]	-18	-4	1%
COc1ccccc1Nc1ccc(N)cc1	-0.7	-29	-4%[15.4 µM]	?	23	-4%
CCCS(=O)(=O)N1CCCC(C(=O)NCC(OC)OC)C1 (stereo not drawn)	3.3	9	40%	.	1	6%
COCOc1cccc(CN2CCC2(C)C(=O)Nc2cc(OC)ccc2OC)c1 (stereo not drawn)	-1.0	-26	.	-11	-2	.
O=C1NC(Nc2nc3ccccc3s2)(C(F)(F)F)C(=O)N1C1CCCCC1 (stereo not drawn)	4.1	-10	11%	-17	-9	-12%
COc1ccccc1NC(=O)CN1CCN(CC(=O)Nc2ccc(Cl)c(C(F)(F)F)c2)CC1	0.3	-16	23%	-2	-7	-15%
COc1ccc(CCN2CC(C(=O)NCCc3cn[nH]c3)CCC2=O)cc1 (stereo not drawn)	6.6	7	-5%	0	14	8%
CC(C)c1ccc(NC2CCCN(C(=O)C3=NN(C)C(=O)CC3)C2)cc1 (stereo not drawn)	-0.8	-3	11%	5	-3	2%
COc1ccc(NC(=S)N2CCN(c3ccc([N+](=O)[O-])cc3)CC2)cc1OC	4.0	0	15%[15.4 µM]	2	-15	.
O=C(O)c1ccc(N/N=C/c2cccc3nccnc23)cc1	-8.9	-13	7%	-1	-10	?
CC1=C(C(=O)Nc2ccc(C)cc2)C(c2cccs2)NC(=S)N1 (stereo not drawn)	-0.4	0	-7%	0	-18	1%
Cc1nc2ccccc2n1CSc1ccccc1	-2.0	15	5%[15.4 µM]	5	-5	4%
COc1ccc(C(=O)OCC(=O)Nc2ccccc2)cc1[N+](=O)[O-]	-6.5	11	-104%[inhibitor]	.	-6	4%
Cc1ccc(CNC(=O)Cn2ccc3ccccc3c2=O)o1	-4.3	-1	23%	1	-11	6%
Cn1c(=O)c2c(ncn2CC(=O)NC2CCCCC2)n(C)c1=O	3.2	-15	13µM*	-1	-33	14%
Cc1ccc(-c2cn3cccnc3n2)cc1NC(=O)c1ccc(Br)o1	0.6	-4	-33%	-9	-3	-1%
CCCc1cc(C(=O)Nc2cccnc2Cl)no1	-3.8	4	2%	3	-2	2%
Cc1cc(C(F)F)n2nc(C(=O)Nc3cccnc3Cl)nc2n1	-3.9	-1	2%	0	-8	-4%
CCOc1nonc1C(=N)/C(C(C)=O)=C(\C)O	-1.9	1	-30%[inhibitor]	-1	-2	-3%
COC(=O)c1ccc(C(=O)Nc2cc(Cl)ccc2Cl)cc1NC(=O)c1ccc(N(C)C)cc1	-1.3	7	-7%	3	-5	5%
CC(C)(C)OC(=O)NCc1ccc(NC(=O)c2nc[nH]c2C(=O)N[C@@H](Cc2ccccc2)C(=O)OCc2ccccc2)cc1	?	-8	.	-8	?	-7%
Cc1ccc(-n2nc(C)c3c2OC(N)=C(C#N)C3c2ccoc2)cc1 (stereo not drawn)	-4.6	-1	-26%	2	-4	-11%
O=C(CCN1C(=O)/C(=C/c2cccs2)SC1=S)NNC(=O)c1cccc(O)c1	10	-5	15%[15.4 µM]	0	0	32µM*
Cc1noc(C)c1C(=O)N1CCC1(C)C(=O)NS(=O)(=O)c1ccc(Br)cc1 (stereo not drawn)	-2.6	-5	.	3	-3	.
Other records follow:
SMILES	D2 agonist	Six1-Eya2 inh	gsp agonist	CtBP-E1A inh	D2 PAM	gsp antag
O=C(Nc1cccc2ccccc12)NC1CCCc2ccccc21 (stereo not drawn)	-0.4	7	-10%	2	-6	0%
COc1ccc(C(=O)NC(=O)COC(=O)c2ccc(C)o2)cc1	-7.4	-3	-51%[inhibitor]	3	-2	-2%
Cc1c(OCC(=O)NC2CCN(Cc3ccccc3)CC2)ccc2c3c(c(=O)oc12)CCC3	3.4	18	-50%[inhibitor]	2	-5	?
O=C(NC(c1ccccc1)c1ccc2ccccc2n1)C1CCN(Cc2ccc(Oc3ccccc3)cc2)CC1 (stereo not drawn)	-5.5	-18	.	-17	-22	.
Cc1ccc(OCCNC(=O)c2cccc(C)c2)cc1	8.5	1	5%	.	-2	7%
Cc1[nH]c2ccccc2c1C(=O)CN1CCC2(CC1)OCCO2	-2.7	8	-15%	10	-14	10%
Cc1occc1C(=O)N1CCCC(N2CCN(c3cccc(C(F)(F)F)c3)CC2)C1 (stereo not drawn)	0.2	-5	20%	-1	-19	-4%
COc1ccc(C=C2SC(=S)NC2=O)cc1	-9.1	-14	-8%[15.4 µM]	-19	-12	?
COc1ccc(C(=O)N(C)Cc2ccccn2)cc1OC1CCN(C(C)C)CC1	-1.5	2	-2%[15.4 µM]	18	1	12%
CC(=O)NC(CC(=O)OCc1ccc([N+](=O)[O-])cc1)c1ccccc1 (stereo not drawn)	-2.7	-5	-12%	2	-7	10%
CC(C)(C)SCCNC(=O)c1ccc(Cl)c([N+](=O)[O-])c1	-1.9	19	-43%[inhibitor]	26	-4	0%
S=C(Nc1ccc2c(c1)OCO2)Nc1ccccc1Cl	-3.2	-4	21%	-11	-10	6%
COc1ccccc1CN1CC(C(=O)NC2CCOCC2)CCC1=O (stereo not drawn)	-2.3	10	10%[15.4 µM]	3	1	9%

In the list so far, four contain two or more sulfur atoms:
SMILES	D2 agonist	Six1-Eya2 inh	gsp agonist	CtBP-E1A inh	D2 PAM	gsp antag
COc1ccc(N(CC(=O)NCCSCc2ccc(Cl)cc2)S(C)(=O)=O)cc1Cl	3.9	-8	7%	.	-3	-14%
CC1=C(C(=O)Nc2ccc(C)cc2)C(c2cccs2)NC(=S)N1 (stereo not drawn)	-0.4	0	-7%	0	-18	1%
O=C(CCN1C(=O)/C(=C/c2cccs2)SC1=S)NNC(=O)c1cccc(O)c1	10	-5	15%[15.4 µM]	0	0	32µM*
COc1ccc(C=C2SC(=S)NC2=O)cc1	-9.1	-14	-8%[15.4 µM]	-19	-12	?
